Bioassay records as filed in PubChem BioAssay.
gsp antagonist: gsp mutant antagonism; gsp-mutant cells, cAMP HTRF, 30 min; control for the full effect not named in the record; Potency, µM (top dose mostly 76.9 µM), inactives show at the highest dose activity change, negative = inhibition, hits mostly inhibitors; 340,000 tested, 0.4% active; AID 624288; active = falling curve of any shape with a large fitted effect; inconclusive = falling curve, mostly with a smaller effect; inactive = flat or rising curve; cell line not stated here;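 also: intracellular cAMP measured with PDE inhibitor Ro 20-1724 present during compound exposure; potency is read from the fitted curve at half-maximal effect; % is scaled to controls: 0 for no effect and ±100 for the full control effect; nearly all actives have a fitted effect of over 65% in size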
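Measurement of cellular cAMP by homogeneous time-resolved fluorescence following a 30 min compound exposure at 37C. The PDE inhibitor […] was present throughout; the assay buffer was DPBS with 0.05% BSA and 0.005% Tween 20.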
D2 agonist: activates the human D2 dopamine receptor. P14416. DiscoveRx PathHunter D2 beta-arrestin, luminescence, 90 min; 100% = 57 uM dopamine signal. activation, % (no concentration beside the values). 360,000 tested, 0.084% active; in the data active = activation above about 40%; inconclusive = about 15% to 40%; inactive = below about 15%; also: compound concentration not given in the record; the text of the record calls up to 30% inactive
Target sequence (P14416 whole entry, looked up): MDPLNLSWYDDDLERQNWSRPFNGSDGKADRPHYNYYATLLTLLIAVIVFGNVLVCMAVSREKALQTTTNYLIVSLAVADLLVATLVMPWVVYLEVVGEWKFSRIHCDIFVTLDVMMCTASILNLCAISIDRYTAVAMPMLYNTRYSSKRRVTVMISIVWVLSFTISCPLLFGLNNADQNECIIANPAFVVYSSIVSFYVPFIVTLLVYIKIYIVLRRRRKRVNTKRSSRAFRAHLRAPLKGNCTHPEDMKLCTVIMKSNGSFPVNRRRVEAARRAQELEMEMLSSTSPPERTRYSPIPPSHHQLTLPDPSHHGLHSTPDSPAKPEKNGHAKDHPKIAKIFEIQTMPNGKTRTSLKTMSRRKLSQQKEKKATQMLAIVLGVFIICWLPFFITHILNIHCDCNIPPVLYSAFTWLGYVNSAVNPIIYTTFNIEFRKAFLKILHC
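Agonist mode: compounds alone added to overnight-plated D2 PathHunter cells for 90 min at 37 C, with 57 uM final dopamine (EC100) defining full response. Beta-arrestin recruitment detected by chemiluminescent reagent, read after 1 h at ambient temperature.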
D2 PAM: human D2 receptor positive allosteric modulation | potentiation, % (concentration not given with the values) | DiscoveRx D2 beta-arrestin cells, luminescence, 90 min; 100% = 57 uM dopamine signal | 360,000 tested, 0.23% active | P14416; active = potentiation of 50% or more; inconclusive = 30% to 50%; inactive = 30% or less;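 also: compound concentration not given in the record; tested on top of an EC20 dose of dopamine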
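D2 cells co-treated with compound plus 50 nM dopamine (EC20) for 90 min at 37 deg C to detect potentiation. Beta-arrestin recruitment was read as enzyme-fragment luminescence after 1 h at ambient temperature. Full response was set by 57 uM dopamine.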
CtBP-E1A inh: inhibitors of CtBP/E1A interaction | AlphaScreen GST-E1A/His-CtBP binding, 1536-well; hits give low values; control for the full effect not named in the record | activity change, % (test concentration not listed) | 340,000 tested, 0.49% active; in the data active means activity change below about -65%; inconclusive means about -30% to -65%; inactive means above about -30%; also: % is scaled to controls: 0 for no effect and ±100 for the full control effect; compound concentration not given in the record
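Steps: dispense buffer (Tris pH 8.0, NaCl 300 mM, TCEP 1 mM, BSA, Tween 20); add 5X protein mix (GST-E1A, His-CtBP, 125 nM each); pin 23 nL compound; 2 h at 37 °C, dark; add 5X beads (50 ug/mL); 1 h; read.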
Six1-Eya2 inh: Six1/Eya2 interaction inhibition; Q15475+O00167; AlphaScreen GST-Six1/His-Eya2 binding, biochemical; hits give low values; control for the full effect not named in the record; activity change, % (concentration not given with the values); 360,000 tested, 0.56% active; AID 651725; in the data active = activity change below about -65%; inconclusive = about -30% to -65%; inactive = above about -30%; also: % is scaled to controls: 0 for no effect and ±100 for the full control effect
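GST-Six1 + His-Eya2 (5X stock: 250/500 nM); Tris pH 8.0, 300 mM NaCl, 0.05% BSA, 0.02% Tween 20; GSH donor/Ni acceptor beads; 1 h 37 °C dark; AlphaScreen readout.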
gsp agonist: gsp mutant agonism; gsp mutant cells, cAMP HTRF, 30 min; control for the full effect not named in the record; Potency, µM (series often up to 76.9 µM), for inactives: at the highest dose activation (cAMP increase), most hits filed as activators; 340,000 tested, 0.13% active; active = well fitted activation curve with a large enough effect; inconclusive = small, poorly fitted or top-dose-only effect, or another doubt; inactive = no such curve, though single readings can be large or run the other way; cell line not stated here;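 also: phosphodiesterase inhibitor Ro 20-1724 added with compounds to block cAMP breakdown; potency is read from the fitted curve at half-maximal effect; nearly all actives have a fitted effect of over 60% in size; about a fifth of the inactives were tested at one dose only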
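Cells in DMEM/10% FBS with G418 were pretreated with compounds in DMSO plus […] (300 uM stock) for 30 min at 37C. cAMP was measured by HTRF (cAMP-d2 plus anti-cAMP antibody-K) after 30 min at room temperature.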
Starred values were filed as active, the others as inactive; ? = inconclusive; nt = no result given; [ ] = another dose, or the depositor's remark.

SMILES | gsp antagonist | D2 agonist | D2 PAM | CtBP-E1A inh | Six1-Eya2 inh | gsp agonist
CCCCOc1ccc(C2C3CN(C(=O)OCC)CC=C3C(C#N)=C(N)C2(C#N)C#N)cc1OC (centres undefined) | 4% | 2.7 | -8 | 11 | -2 | 5%
CN1CCN(C(=O)C2=C[C@H](c3ccc4c(c3)OCO4)C[C@H](OCCCCO)O2)CC1 | 1% | -3.9 | -18 | -21 | 5 | 6%
O=C(CN1C(=O)C2CC=CCC2C1=O)Nc1ccc(S(=O)(=O)NC2=NCCCCC2)cc1 (centres undefined) | 20% | 0.0 | -2 | 5 | 1 | 1%
O=C(NCc1cccnc1)Nc1ccccc1F | 6% | 1.0 | 9 | 3 | 2 | 1%
CCOCCCN(C)C1CCN(C(=O)c2oc3ccccc3c2NC(=O)c2cccc([N+](=O)[O-])c2)CC1 | -2% | -7.5 | -39 | -21 | -6 | -1%
Cc1ccc(N=Cc2ccc(N(C)C)cc2)cc1C | 16% | 0.3 | -47 | -1 | 1 | -9%[15.4 µM]
COc1ccccc1NC(=O)N1CCN(c2cccc(C(F)(F)F)c2)CC1 | 2% | -0.4 | -12 | 6 | 4 | 10%
CCOc1ccc(S(=O)(=O)NCCC(=O)N2CCCN(C)CC2)cc1 | 10% | -5.8 | -5 | 25 | -7 | -29%
COc1ccc2c(c1)c(=O)oc1c(C)c(OCc3ccc(C(=O)O)cc3)ccc12 | -15% | -9.7 | 3 | nt | -15 | -44%[inhibitor]
CCN1CCN(CC(=O)Nc2nc3ccccc3s2)CC1 | 1% | -1.8 | 4 | nt | 5 | -5%
Cc1ccc(C2=CC(c3ccccc3)n3ncnc3N2)c(C)c1 (centres undefined) | 3% | -4.0 | -10 | -7 | 0 | -1%
CCC1CCCCN1C(=O)COc1ccc2c(c1)OCO2 (centres undefined) | -1% | 0.0 | -1 | -12 | -6 | -8%
O=C(Nc1nc2cc3c(cc2s1)OCCO3)c1ccc(N2C(=O)CCC2=O)cc1 | 18% | -3.9 | -10 | 7 | 7 | 15%
CN(CC(=O)NCc1ccc(F)cc1)S(=O)(=O)c1cccc2nsnc12 | 2% | -4.4 | -1 | -7 | 3 | 26%
CC(=O)C1=C(c2ccccc2)NC(=O)NC1c1ccccc1OCC(=O)NCc1ccccc1 (centres undefined) | 2% | -0.3 | 5 | -2 | 0 | 8%
COc1ccccc1OCCC(=O)O | 2% | -2.6 | -6 | 8 | 5 | -49%[inhibitor]
CCOC(=O)N1CCN(C(=O)COC(=O)c2ccc(O)cc2O)CC1 | -3% | 0.0 | 4 | -9 | -11 | 11%
COCCN(C(=O)COC(=O)/C=C/c1ccc(OC)c(OC)c1)c1c(N)n(Cc2ccccc2)c(=O)[nH]c1=O | 7% | -4.8 | -5 | -1 | 6 | -6%[15.4 µM]
NC1=NC(=O)/C(=C/c2cccs2)S1 | -11% | -2.0 | -20 | -14 | -15 | -9%
COC(=O)c1cc(C)nc2c1C(=O)C(=O)C=C2N1CCOCC1 | ? | ? | -8 | -68* | -67* | -62%[inhibitor]
CN(C)c1ccc(C(=O)c2ccc(O)cc2O)cc1 | -12% | -2.8 | -3 | -14 | -16 | 0%
COc1cccc2[nH]c3c(N4CCC(C)CC4)ncnc3c12 | -8% | -3.6 | -19 | 2 | -1 | -14%
S=C(NNC(=S)Nc1ccccc1)Nc1ccccc1 | -2% | -4.1 | -11 | -10 | 1 | 4%[15.4 µM]
COC(=O)c1ccc(NC(=O)CSc2nnc(C3CC3)n2C)cc1 | 7% | 2.0 | -3 | 0 | 22 | -36%[15.4 µM]
O=C(c1cccc(OC(F)F)c1)N1CCN(c2ncccn2)CC1 | 5% | 0.3 | -9 | 2 | -2 | -26%
O=C(Nc1ccc(N2CCOCC2)cc1)NC1CCCCC1 | -10% | -0.2 | -6 | 0 | -8 | -32%[inhibitor]
COc1ccc(S(=O)(=O)N2CCOC2CNC(=O)C(=O)NCCCN(C)C)cc1C (centres undefined) | 16% | 4.5 | 3 | 4 | -1 | -16%[15.4 µM]
COc1ccc(Nc2nnc(-c3ccc(O)cc3)c3ccccc23)cc1C(N)=O | -19% | -1.7 | -2 | nt | -9 | -38%[inhibitor]
O=C(Cn1c(=O)n(CCC(=O)N2CCc3ccccc3C2)c(=O)c2ccccc21)NCC1CCCO1 (centres undefined) | -1% | 0.0 | -7 | -3 | -1 | -26%
O=C(NC1CCCCC1)C1c2ccccc2C(=O)N1Cc1ccco1 (centres undefined) | -7% | -3.1 | 0 | 4 | 0 | 17%
CCC1(C)Cc2c(sc3nc(SC)[nH]c(=S)c23)CO1 (centres undefined) | -6% | -2.5 | -6 | -3 | -10 | ?
O=C(N/N=C/C(Br)=C\c1ccccc1)c1ccco1 | -3% | 2.9 | -7 | -82* | -8 | 29%
CC(C)C1C(=O)CC(c2ccccc2)NC1c1ccccc1 (centres undefined) | -17% | -3.0 | 9 | nt | -1 | -39%[inhibitor]
COc1ccc(CNC(=O)COC(=O)c2cc(C)nc3ccccc23)cc1 | -8% | -2.2 | 4 | -4 | 0 | -15%
CC1CCCCCCC1OC(=O)c1ccccc1C(=O)O (centres undefined) | -16% | 0.1 | -17 | -1 | 5 | -26%
CC(C)C(NC(=O)c1ccccc1NC(=O)C(C)(C)C)C(=O)N1CCOCC1 (centres undefined) | -2% | 4.7 | -9 | 6 | -14 | 18%[15.4 µM]
CN1CCN(c2nc(-c3cccs3)cs2)CC1 | -9% | -7.5 | -10 | 0 | 8 | 12%[15.4 µM]
CN(C(=O)c1cncc(Br)c1)C1C2CC3CC(C2)CC1C3 (centres undefined) | -16% | 4.6 | -6 | 9 | 9 | 22%[15.4 µM]
CCCCN1C(=N)N([C@@H](CN2CCC[C@H]2CN2C(N)=NC[C@@H]2Cc2ccccc2)C(C)C)C[C@H]1Cc1ccccc1 | 0% | -5.5 | -18 | -5 | 5 | ?
Cc1cc(C)cc(NC(=O)N(C)Cc2ccccc2)c1 | 6% | 3.2 | -1 | 14 | 11 | 1%

Entries of single compounds from above. Values in the order: gsp antagonist	D2 agonist	D2 PAM	CtBP-E1A inh	Six1-Eya2 inh	gsp agonist
Results for `CC1CCCCCCC1OC(=O)c1ccccc1C(=O)O` (centres undefined) → -16%	0.1	-17	-1	5	-26%
Results for `CN1CCN(c2nc(-c3cccs3)cs2)CC1` → -9%	-7.5	-10	0	8	12%[15.4 µM]
Results for `CC(=O)C1=C(c2ccccc2)NC(=O)NC1c1ccccc1OCC(=O)NCc1ccccc1` (centres undefined) → 2%	-0.3	5	-2	0	8%
Results for `COc1ccc(Nc2nnc(-c3ccc(O)cc3)c3ccccc23)cc1C(N)=O` → -19%	-1.7	-2	nt	-9	-38%[inhibitor]
Results for `CCC1(C)Cc2c(sc3nc(SC)[nH]c(=S)c23)CO1` (centres undefined) → -6%	-2.5	-6	-3	-10	?

Next records follow.
SMILES | gsp antagonist | D2 agonist | D2 PAM | CtBP-E1A inh | Six1-Eya2 inh | gsp agonist
O=C(CSc1nc2ccccc2n1Cc1ccc(Cl)cc1)N/N=C/c1ccccc1C(=O)O | -11% | -3.0 | -6 | 3 | -9 | 7%
COC(=O)c1cc(Br)c(=O)n(CCN2CCCCC2)c1 | 3% | -0.2 | -14 | 4 | 13 | -14%
CCn1c(SCC(=O)c2cc(OC)ccc2OC)nnc1C1CC1 | 4% | -5.1 | -16 | 3 | -1 | -10%
Cc1ccc(Cl)c(NC(=O)COC(=O)c2nn(-c3ccccc3)cc2O)c1Cl | 3% | 2.0 | -14 | -1 | 2 | 11%[15.4 µM]
Cc1nn(Cc2ccccc2Cl)c2sc(C(=O)NCCCn3ccnc3)cc12 | -4% | -1.6 | -24 | -1 | -9 | -15%
CCCC(=O)N1CCc2cc(OC)c(OC)cc2C1c1cc2cc3c(cc2[nH]c1=O)OCO3 (centres undefined) | -12% | -0.8 | -3 | 2 | -4 | 30%
CC(Sc1nnnn1-c1ccccc1)C(=O)Nc1ccc(Cl)cn1 (centres undefined) | 2% | -0.5 | -13 | 2 | 2 | -29%
C#CCN(C[C@H]1[C@H](OC(=O)NCc2ccc(OC)c(OC)c2)[C@H](OC(=O)NCc2ccc(OC)c(OC)c2)C[C@H]2C(=O)N(c3ccccc3)C(=O)[C@@H]12)S(=O)(=O)c1ccc(C)cc1 | nt | -1.4 | 0 | 3 | 15 | -68%[inhibitor]
COCc1cc(N2CCN(c3ccccc3F)CC2)nc(-c2ccccc2)n1 | -17% | -2.6 | 2 | 3 | -1 | -16%[15.4 µM]
Cc1cc(OC(=O)c2ccc(Cl)cc2Cl)nc(C)n1 | 8% | 0.3 | -6 | 5 | 4 | -1%
COc1ccc2[nH]c(C)c(C(=O)CN3CCOCC3)c2c1 | 3%[15.4 µM] | 0.4 | -7 | -7 | 8 | -27%
CC(=O)Nc1ccc(NC(=O)CSc2nnc(-c3cc4ccccc4o3)n2C)cc1 | 11% | -2.3 | -1 | -20 | -10 | ?
O=S(=O)(c1ccc(Cl)cc1)N1CCN=C1SCc1cccc(Cl)c1 | -8% | 0.0 | 4 | 30 | 28 | -12%
Cc1ccc(C)c(C(=O)N(Cc2nc(-c3ccc(Cl)cc3)no2)C(C)C)c1 | -22% | 0.1 | 0 | 5 | 0 | -36%[inhibitor]
CC1c2cc3c(cc2CCN1C(=O)c1cccc(F)c1)OCCCO3 (centres undefined) | 2% | -1.3 | -12 | -8 | -2 | 33%
Cc1cc(N/N=C\c2ccccc2)nc(-c2ccccc2O)n1 | -12% | -0.9 | 1 | -1 | 0 | -8%[15.4 µM]
Cc1cc(C(=O)Nc2ccc(Br)cc2F)n(-c2ccccc2)n1 | -1% | 4.9 | -12 | -17 | -2 | 2%
Cc1nc2sc(C(c3ccc(F)cc3)N3CCOCC3)c(O)n2n1 (centres undefined) | -1% | -2.6 | -6 | 4 | 0 | 1%
COc1ccc(C(=O)N/N=C\c2ccc(OC)c(COc3ccccc3Br)c2)c(OC)c1 | -7% | 9.9 | -3 | 0 | 0 | -1%
Cc1c(/C=N/NC(=O)c2cc(Br)ccc2O)c(=O)n(C)c(=O)n1C | -10% | -2.1 | -11 | -17 | ? | 19%
CC(C)(C)c1ccc2cccc(F)c2n1 | nt | -4.7 | 1 | -1 | 1 | nt
CCCSc1nc(-n2ncc(C#N)c2N)c2c3c(sc2n1)CCC(C)C3 (centres undefined) | -19% | 0.3 | -15 | 8 | -2 | 4%
Cc1cc(C(=O)N/N=C2\CC(=O)CC(C)(C)C2)c(C)n1-c1ccccc1 | 3% | -3.7 | -4 | -26 | -10 | 1%
O=C(Nc1ccc(Cl)c(Cl)c1)C1=Cc2ccccc2OC1 | -27% | 3.0 | -32 | 10 | 16 | 28%
COc1ccc2oc(C(=O)Nc3ccccn3)c(C)c2c1 | -7% | 0.7 | 11 | -1 | 1 | -24%
CN1[C@@H]2CC[C@H]1CC(OC(=O)c1c[nH]c3ccccc13)C2 (some centres undefined) | -4% | -3.4 | -13 | 0 | 1 | nt
